rRNA inh HTS: reduced GFP signal of wild-type E. coli, primary screen, bacterial rRNA inhibitor project, GFP/RFP fluorescence, OD600, single point. E. coli WT GFP vs humanized-ribosome RFP mutants, 24 h; active compounds read low; DMSO median 0, no signal -100. GFP signal change (wild-type ribosome), % (no concentration beside the values). 350,000 tested, 1.6% active. AID 720706, 2013;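 active means significant combined selectivity score with lowered wild-type GFP, culture density cut under 30%, mutant RFP and density less affected; inactive means any of these conditions unmet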; further: one replicate is shown; some compounds called inactive have numbers as strong as hits
rRNA inh HTS OD600: further read-out of rRNA inh HTS, marked with its call; OD600 change, %; measured here: OD600 growth;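 optical density of the mix in the first replicate; 0 = DMSO median and -100 = no signal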
rRNA inh HTS RFP: second read-out of rRNA inh HTS, no call of its own (marks repeat the call); RFP signal change, %; measured here: RFP humanized mutant strains;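 first replicate; 0 = DMSO median and -100 = no signal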
* marks the source's active call; other numbers are inactive results; & = joins results of further samples. Only part of the results is shown; count on the stated rates, not on these rows.

Values in the order – rRNA inh HTS, rRNA inh HTS OD600, rRNA inh HTS RFP
C[C@H](CO)N1C[C@H](C)[C@H](CN(C)Cc2ccc(Cl)c(Cl)c2)Oc2ccc(N(C)C)cc2C1=O
    -3, -45, 30
O=C(N[C@H]1CC[C@H](CCNS(=O)(=O)c2ccc(F)cc2)O[C@@H]1CO)c1ccccn1
    -2, 6, -4.5
C[C@@H]1CCCCO[C@H](CN(C)C(=O)CCCN(C)C)[C@@H](C)CN([C@H](C)CO)C(=O)c2cc(NS(=O)(=O)c3ccc(F)cc3)ccc2O1
    3, 9, 0.4
COc1cccc(-c2cc3nc(NCCN4CCCC4)n(C)c(=O)c3s2)c1
    10, 10, 1.9
C[C@@H]1CN([C@@H](C)CO)C(=O)c2cccc(NC(=O)C3CCCCC3)c2O[C@@H]1CN(C)C
    3, 4, -1.8
C[C@@H]1CN([C@H](C)CO)C(=O)c2cccc(NC(=O)c3nc4ccccc4s3)c2O[C@H]1CN(C)S(C)(=O)=O
    -3, -3, -2.2
C[C@H]1CN([C@@H](C)CO)C(=O)c2cc(NC(=O)Nc3ccc4c(c3)OCO4)ccc2O[C@@H]1CN(C)S(=O)(=O)c1ccc(Cl)cc1
    5, 11, 1.0
CNC[C@@H]1Oc2ncc(C#CCC3CCCC3)cc2C(=O)N([C@H](C)CO)C[C@H]1C
    1, 9, -2.8
C[C@H]1CN([C@@H](C)CO)C(=O)c2cc(NS(=O)(=O)c3ccc(Cl)cc3)ccc2O[C@@H]1CN(C)Cc1ccccc1
    -2, -4, 3.1
O=C(N[C@H](Cc1ccccc1)C(=O)N1CCN(Cc2ccccn2)CC1)[C@H]1O[C@@H](n2ccc(=O)[nH]c2=O)[C@H](O)[C@@H]1O
    23, 4, 2.4
COc1ccc(NC(=O)Nc2ccc3c(c2)C(=O)N([C@H](C)CO)C[C@H](C)[C@H](CN(C)CC2CC2)OCCCC[C@@H](C)O3)cc1
    2, 6, 3.9
CCCCCn1cc(CCC(=O)Nc2ccc(N(C)c3ccccn3)cc2)c2ccccc21
    -9, -12, 59
C[C@@H]1CN([C@@H](C)CO)C(=O)Cc2cc(NC(=O)CCN3CCOCC3)ccc2O[C@H]1CN(C)C
    5, 0, -2.3
O=C(C[C@H]1CC[C@@H](NC(=O)NC2CCCCC2)[C@@H](CO)O1)NCc1ccc(F)cc1
    -1, 0, -2.3
CC(C)(CO)CN1CCC(n2nccc2NC(=O)C2CCOC2)CC1 (stereo unspecified)
    5, 11, -1.0
C[C@H](CO)N1C[C@H](C)[C@H](CN(C)Cc2cccnc2)Oc2ncc(C#CC3CCCCC3)cc2C1=O
    10, -2, 3.4
CN1CCCCN2[C@H](CO)[C@H](c3ccc(C#Cc4ccccc4F)cc3)[C@H]2C1
    -1, 3, 1.9
C[C@H](CO)N1C[C@H](C)[C@H](CN(C)C)Oc2ccc(NC(=O)Cn3cnnn3)cc2C1=O
    3, 4, -1.0
C[C@@H]1CCCCO[C@@H](CN(C)Cc2ccc3c(c2)OCO3)[C@H](C)CN([C@H](C)CO)C(=O)c2cc(NC(=O)C3CCCCC3)ccc2O1
    5, -11, -0.6
CCC(=O)N(C)C[C@H]1Oc2ncc(C#Cc3cccnc3)cc2C(=O)N([C@H](C)CO)C[C@H]1C
    -1, -4, 0.3
O=C(C[C@@H]1CC[C@H]2[C@@H](COC[C@H](O)CN2C(=O)c2ccncc2)O1)NC1Cc2ccccc2C1
    5, 15, -2.7
COc1ccc(CN(C)C[C@@H]2Oc3c(NC(=O)Nc4cccc5ccccc45)cccc3C(=O)N([C@H](C)CO)C[C@@H]2C)cc1
    -3, -1, 0.4
C=CCN(CC=C)Cc1cc(=O)oc2cc(OC)c(Cl)cc12
    -19, -51, 39
CNC[C@H]1Oc2ccc(NS(=O)(=O)c3c(C)noc3C)cc2CC(=O)N([C@@H](C)CO)C[C@@H]1C
    1, 1, -2.6
C[C@@H]1CN([C@H](C)CO)C(=O)c2cccc(NS(=O)(=O)c3ccccc3)c2O[C@@H]1CN(C)Cc1ccncc1
    4, 3, 0.0
COc1cccc(-c2ccc([C@@H]3[C@H]4CN(C(=O)c5ccncc5)CC(=O)N4[C@H]3CO)cc2)c1
    -3, 2, -4.7
CCC(=O)N1[C@H](CO)[C@H](c2ccc(-c3cncnc3)cc2)[C@@H]1CN(C)C(C)=O
    2, 13, -1.4
C[C@@H]1CN([C@@H](C)CO)C(=O)c2cc(NS(=O)(=O)c3cn(C)cn3)ccc2O[C@H]1CN(C)S(=O)(=O)c1cn(C)cn1
    4, 9, -1.5
CN(C)CCCNC(=O)C[C@@H]1CC[C@H]2[C@@H](COC[C@H](O)CN2Cc2cccc(Cl)c2)O1
    -4, -9, 1.2
C[C@H](CO)N1C[C@H](C)[C@H](CN(C)C(=O)CN(C)C)Oc2cc(C#CC3CC3)ccc2S1(=O)=O
    3, 7, 0.5
C[C@@H]1CCCCO[C@@H](CN(C)S(=O)(=O)c2cccs2)[C@H](C)CN([C@@H](C)CO)C(=O)c2cc(NC(=O)CCC(F)(F)F)ccc2O1
    -3, -9, 1.2
C[C@H]1CN([C@@H](C)CO)C(=O)c2cccc(NS(C)(=O)=O)c2O[C@H]1CN(C)C(=O)NC1CCCCC1
    2, 1, 0.4
CC(C)NC(=O)Nc1ccc2c(c1)C(=O)N([C@@H](C)CO)C[C@@H](C)[C@H](CN(C)S(C)(=O)=O)OCCCC[C@@H](C)O2
    5, 9, -2.9
CC(=O)N[C@@H]1CC[C@@H](CC(=O)NCc2ccc(Cl)cc2)O[C@H]1CO
    1, 3, -0.2
Cc1noc(C)c1NC(=O)Nc1ccc2c(c1)C(=O)N([C@H](C)CO)C[C@H](C)[C@H](CN(C)S(=O)(=O)c1ccc(F)cc1)OCCCC[C@@H](C)O2
    3, 10, 0.4
COc1ccc(C#Cc2ccc3c(c2)[C@@H]2[C@@H](CCN2C(=O)C2CC2)[C@@H](CO)N3)cc1
    -7, -8, 4.6
COc1ccc(C#Cc2cnc3c(c2)C(=O)N([C@H](C)CO)C[C@@H](C)[C@@H](CN(C)C(=O)c2ccccc2F)O3)cc1
    -2, -12, -0.8
O=C(c1cccc(F)c1)N1C[C@H]2[C@@H](c3ccccc31)[C@H](CO)N2C(=O)C1CCOCC1
    2, 1, -4.8
CCCNC(=O)N(C)C[C@@H]1Oc2cc(Br)ccc2S(=O)(=O)N([C@H](C)CO)C[C@H]1C
    1, 3, 1.3
O=C(C[C@H]1CC[C@H]2[C@@H](COC[C@@H](O)CN2Cc2ccccc2F)O1)N1CCc2ccccc2C1
    -16, -37, 11
Cc1[nH]c2ccccc2c1CC(=O)Nc1ccc(Nc2cccnc2)c(-c2ccc(Cl)c(Cl)c2)c1
    6, -1, 5.7
COc1ccc(Br)cc1CNC(=O)C1CCCN(S(=O)(=O)N2CCC(C)CC2)C1 (stereo unspecified)
    -4, -7, -2.4
Cc1noc(C)c1S(=O)(=O)N(C)C[C@@H]1OCCCC[C@@H](C)Oc2ccc(NC(=O)CCCN(C)C)cc2C(=O)N([C@H](C)CO)C[C@H]1C
    -1, 3, -1.6
CC(C)C#Cc1cnc2c(c1)C(=O)N([C@@H](C)CO)C[C@H](C)[C@H](CN(C)C(=O)c1cnccn1)O2
    2, 4, 1.9
O=[N+]([O-])c1cc2c(ccc3occc32)o1
    -60, -80, -14
CO[C@@H]1CN(C)C(=O)c2ccc(NS(=O)(=O)C3CCCCC3)cc2OC[C@H](C)NC[C@H]1C
    2, 1, -0.2
C[C@@H]1CN([C@@H](C)CO)C(=O)c2cc(NC(=O)CCC(F)(F)F)ccc2O[C@@H](C)CCCCO[C@H]1CN(C)C(=O)c1ccncc1
    4, 13, 0.8
COc1cccc(C#Cc2ccc3c(c2)O[C@H](CN(C)C(C)=O)[C@H](C)CN([C@@H](C)CO)S3(=O)=O)c1
    -1, -13, 4.0
C[C@@H]1CN([C@@H](C)CO)S(=O)(=O)c2ccc(C#CC(C)(C)O)cc2O[C@H]1CN(C)Cc1ccccc1
    -15, -37, 7.4
CCCC(=O)Nc1ccc2c(c1)C(=O)N(C)C[C@@H](OC)[C@H](C)CN(C(=O)C1CCCC1)[C@@H](C)CO2
    3, 3, 1.9
Cc1noc(C)c1S(=O)(=O)Nc1ccc2c(c1)CC(=O)N([C@@H](C)CO)C[C@H](C)[C@H](CN(C)C(=O)NC(C)C)O2
    3, 2, -0.2
CC=Cc1ccc2n(c1=O)C[C@@H]1[C@@H](CO)[C@H](C(=O)NCC3CC3)N(C(C)=O)[C@H]21 (mixture of isomers)
    4, 6, -1.8
COc1ccc(CN(C)C[C@H]2OCCCC[C@H](C)Oc3ccc(NS(=O)(=O)c4c(C)noc4C)cc3C(=O)N([C@H](C)CO)C[C@H]2C)cc1
    0, -2, 3.5
CO[C@H]1CN(C)C(=O)c2ccc(NC(=O)CC(F)(F)F)cc2OC[C@@H](C)N(C(=O)c2ccccc2F)C[C@@H]1C
    3, 2, 3.5
CCOC(=O)[C@]12CCC=C1N(Cc1cccc3ccccc13)C(=O)[C@H](CC(=O)NCc1cccc(C(F)(F)F)c1)C2
    16, 4, 3.4
Cc1ccc(S(=O)(=O)N(C)C[C@@H]2OCCCC[C@@H](C)Oc3ccc(NS(=O)(=O)c4c(C)noc4C)cc3C(=O)N([C@H](C)CO)C[C@@H]2C)cc1
    16&2, 33&-1, 6.0&-0.9
C[C@H](CO)N1C[C@H](C)[C@@H](CN(C)Cc2ccc(C(=O)Nc3ccccc3N)cc2)Oc2c(NS(=O)(=O)c3ccc(Cl)cc3)cccc2C1=O
    -2, 7, 0.8
C[C@@H]1CCCCO[C@H](CN(C)Cc2ccccc2)[C@H](C)CN([C@@H](C)CO)C(=O)c2cc(N(C)C)ccc2O1
    -1, -1, -1.7
CC(C)NC(=O)Nc1cccc2c1O[C@H](CN(C)S(=O)(=O)c1ccc(Cl)cc1)[C@H](C)CN([C@@H](C)CO)C2=O
    -2, 11, -3.8
CC(=O)N(C[C@H]1N[C@H](CO)[C@@H]1c1ccc(-c2cccc(F)c2)cc1)C1CCCC1
    0, -8, 4.0

The results go on.
Structure,rRNA inh HTS,rRNA inh HTS OD600,rRNA inh HTS RFP
C[C@@H]1CN([C@H](C)CO)C(=O)c2cc(C#CCN(C)C)cnc2O[C@H]1CN(C)Cc1cccc(C(=O)O)c1,8,12,-1.7
COCC(=O)N1[C@H](C#N)[C@H](c2ccccc2-c2cccc(C)c2)[C@H]1CO,-1,16,3.1
C[C@H](CO)N1C[C@H](C)[C@@H](CN(C)C(=O)Nc2ccc3c(c2)OCO3)OCCCC[C@H](C)Oc2ccc(NC(=O)Nc3ccc(C(F)(F)F)cc3)cc2C1=O,-2,3,0.1
C[C@H](CO)N1C[C@H](C)[C@H](CN(C)S(=O)(=O)c2cccs2)Oc2c(NS(=O)(=O)c3cn(C)cn3)cccc2C1=O,2,-3,-1.6
C[C@H](CO)N1C[C@H](C)[C@@H](CN(C)C(=O)C2CCOCC2)Oc2ncc(-c3ccccc3)cc2C1=O,5,14,-3.5
CO[C@@H]1CN(C)C(=O)c2cc(NS(C)(=O)=O)ccc2OC[C@@H](C)N(CCC(F)(F)F)C[C@@H]1C,-1,-2,-1.1
CC=Cc1ccc2n(c1=O)C[C@@H]1[C@@H](CO)[C@H](C(=O)NCCC)[C@H]2N1S(=O)(=O)c1cn(C)cn1 (mixture of isomers),9,2,1.0
Cc1ccc(S(=O)(=O)N(C)C[C@H]2OCCCC[C@@H](C)Oc3ccc(NS(=O)(=O)c4c(C)noc4C)cc3C(=O)N([C@H](C)CO)C[C@H]2C)cc1,-1,-7,2.5
COc1ccc2c3c(n(C)c2c1)[C@H](CO)N(Cc1cccc(F)c1)CC31CN(C(=O)Cc2ccccc2)C1,-5,-22,6.8
O=C(c1ccccn1)N1C[C@H]2[C@@H](c3ccccc31)[C@H](CO)N2C(=O)Nc1ccccc1F,5,9,-1.0
Cc1noc(C)c1S(=O)(=O)Nc1ccc2c(c1)C(=O)N([C@H](C)CO)C[C@H](C)[C@H](CN(C)S(=O)(=O)c1cccs1)OCCCC[C@@H](C)O2,1,9,-3.4
COc1ccc(-c2ccc([C@H]3[C@H]4CN(C(=O)NC(C)C)CC(=O)N4[C@H]3CO)cc2)cc1,-4,0,-2.3
CC(=O)N1CC(=O)N2[C@@H](CO)[C@H](c3ccc(-c4ccc(C(=O)N(C)C)cc4)cc3)[C@@H]2C1,-1,3,0.3

Some of the entries above, reformatted.
Molecule: Cc1noc(C)c1S(=O)(=O)Nc1ccc2c(c1)C(=O)N([C@H](C)CO)C[C@H](C)[C@H](CN(C)S(=O)(=O)c1cccs1)OCCCC[C@@H](C)O2
  rRNA inh HTS = 1 | rRNA inh HTS OD600 = 9 | rRNA inh HTS RFP = -3.4
Molecule: C[C@@H]1CN([C@H](C)CO)C(=O)c2cc(C#CCN(C)C)cnc2O[C@H]1CN(C)Cc1cccc(C(=O)O)c1
  rRNA inh HTS = 8 | rRNA inh HTS OD600 = 12 | rRNA inh HTS RFP = -1.7
Molecule: COc1ccc2c3c(n(C)c2c1)[C@H](CO)N(Cc1cccc(F)c1)CC31CN(C(=O)Cc2ccccc2)C1
  rRNA inh HTS = -5 | rRNA inh HTS OD600 = -22 | rRNA inh HTS RFP = 6.8
Molecule: C[C@H](CO)N1C[C@H](C)[C@@H](CN(C)C(=O)Nc2ccc3c(c2)OCO3)OCCCC[C@H](C)Oc2ccc(NC(=O)Nc3ccc(C(F)(F)F)cc3)cc2C1=O
  rRNA inh HTS = -2 | rRNA inh HTS OD600 = 3 | rRNA inh HTS RFP = 0.1
